Screens as filed in PubChem.
Mtb H37Rv: M. tuberculosis H37Rv growth inhibitors, H37Rv strain (AID 1626); inhibition, % at 10 µM, or IC50 in µM where a hit was titrated; M. tuberculosis H37Rv growth inhibition; higher % means a stronger effect; hit rate 0.95% among 220,000;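 active = confirmed in a dose series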;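 also: bacteria incubated seven days before Alamar blue readout; 0% = bacteria only wells and 100% = bacteria with antibiotic wells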
YopH PTP inh: inhibitors of Yersinia enterocolitica YopH tyrosine phosphatase. AID 898. hit rate 0.16% among 140,000. fluorescence Ex485/Em525. inhibition, %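 (about 10 µM by stock and volumes)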;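 active = inhibition of 50% or more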;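 also: controls were vehicle for no effect and minimum signal wells for full effect; inactives centre near -20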
Mtb betalactam: beta-lactam sensitization of Mtb H37Rv. M. tuberculosis H37Rv growth with meropenem, percent inhibition; hits of this screen are not shown here. inhibition, % at 25 µM. hit rate 0.27% among 330,000. AID 434955;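 active = about 74% or more and at least 40 points above the plate without the antibiotic, then above 30% in a dose series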;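 also: growth measured after seven days incubation then overnight dye step; 0% = bacteria only wells and 100% = bacteria with antibiotic; twin plates without the antibiotic show which effects depend on it; some results filed as inactive read as strong as hits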
RecA splice inh: blocks M. tuberculosis RecA intein splicing | P9WHJ3 | cell-free RecA intein splicing, fluorescence | inhibition, %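 (about 9 µM by stock and volumes)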 | hit rate 0.75% among 290,000; in the data active = inhibition above about 30%;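 also: 0% = vehicle wells and 100% = reference inhibitor control wells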
Target sequence (P9WHJ3 whole entry, looked up, canonical isoform): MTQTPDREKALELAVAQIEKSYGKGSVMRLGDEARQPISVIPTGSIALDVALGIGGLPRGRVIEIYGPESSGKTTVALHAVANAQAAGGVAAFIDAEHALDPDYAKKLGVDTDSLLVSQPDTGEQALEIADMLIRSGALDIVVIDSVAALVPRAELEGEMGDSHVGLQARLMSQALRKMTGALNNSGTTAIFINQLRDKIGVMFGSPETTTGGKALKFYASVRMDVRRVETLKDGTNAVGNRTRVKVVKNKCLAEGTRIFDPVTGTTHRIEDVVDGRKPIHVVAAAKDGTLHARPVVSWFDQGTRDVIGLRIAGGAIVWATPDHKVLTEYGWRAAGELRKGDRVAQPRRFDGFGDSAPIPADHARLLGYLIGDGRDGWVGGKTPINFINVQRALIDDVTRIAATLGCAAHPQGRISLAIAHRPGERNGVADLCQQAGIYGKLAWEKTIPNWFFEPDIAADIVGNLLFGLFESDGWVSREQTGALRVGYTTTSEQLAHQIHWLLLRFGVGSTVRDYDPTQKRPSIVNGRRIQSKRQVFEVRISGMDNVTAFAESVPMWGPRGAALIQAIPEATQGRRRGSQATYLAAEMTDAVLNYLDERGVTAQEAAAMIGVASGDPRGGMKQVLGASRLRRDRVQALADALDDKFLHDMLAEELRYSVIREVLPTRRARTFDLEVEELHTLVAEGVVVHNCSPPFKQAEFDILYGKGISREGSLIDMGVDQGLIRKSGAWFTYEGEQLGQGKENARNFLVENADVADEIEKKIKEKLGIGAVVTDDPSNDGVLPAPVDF
Arbovirus inh: arbovirus infection inhibition. arbovirus infection cell-based antiviral screen. inhibition, % at 10 µM. hit rate 0.37% among 200,000;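 active = inhibition from about 30%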;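 also: bluetongue infection of BSR cells; cell survival read as ATP light after 72 h; 0% = infected wells without compound and 100% = uninfected wells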
Arbovirus inh repeat: second read-out of Arbovirus inh, no call of its own (marks repeat the call); inhibition, %; measured here: 10K subset replicate screen; many hits read low in the repeat;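 first of two repeat runs on a subset; 0% = infected and 100% = uninfected wells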
Starred values were filed as active, the others as inactive; nt = no result given. An excerpt; the hit share may differ from the screen's.

SMILES	Mtb H37Rv	YopH PTP inh	Mtb betalactam	RecA splice inh	Arbovirus inh	others
N=C1C(c2nc(-c3ccc(Br)cc3)cs2)=C(O)CN1NC(=O)c1ccc([N+](=O)[O-])cc1	9%	nt	0	4.9	-6
Cc1cc(C)c(S(=O)(=O)N2CCOC2CNC(=O)C(=O)NCCc2c[nH]c3ccccc23)c(C)c1 (stereo not drawn)	11%	-25	3	2.6	-27
CCc1cc(-c2n[nH]c(=S)n2C(C)c2ccccc2)cs1 (stereo not drawn)	-3%	-9	-2	3.5	10
CC1(C)C([N+](=O)[O-])C(c2ccc(Cl)cc2)NC(c2ccc(Cl)cc2)C1[N+](=O)[O-] (stereo not drawn)	-5%	-21	1	24	6
COC(=O)c1ccc(CN2CCN(CC=C(C)C)C(CCO)C2)cc1 (stereo not drawn)	10%	nt	-3	0.9	-9
CCC(C)N(C(=O)c1csnn1)C(C(=O)NC1CCCC1)c1c(F)cccc1Cl (stereo not drawn)	nt	nt	-2	-0.4	nt
COC(=O)c1ccc(CN2C(=O)NC(c3ccccc3)(c3ccccc3)C2=O)o1	nt	nt	-1	4.1	nt
CCC(=O)NC(=S)NNC(=O)c1ccc(NC(=O)c2ccccc2)cc1	5%	nt	-6	-5.2	-7
COC(=O)c1cc2c(s1)-c1ccccc1CC2	2%	-32	9	5.4	-7
OC1C2CN3CCN(C2)CC1(Cc1ccccc1)C3 (stereo not drawn)	-6%	-19	-8	-2.2	-1
CN1CCN(c2cc(C(F)(F)F)nc(-c3ccccn3)n2)CC1	3%	nt	1	3.8	6
O=C(CCC1CCCN(C(=O)c2ccc3[nH]ccc3c2)C1)N1CCN(c2ccccn2)CC1 (stereo not drawn)	-5%	nt	3	0.6	-2
O=C(NNS(=O)(=O)c1ccc(F)cc1)c1ccc(O)cc1	nt	nt	-2	-6.4	nt
CC(C)(C)NC(=O)NC(=O)CN1c2cccc3cccc(c23)S1(=O)=O	nt	nt	-5	0.7	nt
OCCN(Cc1ccccc1)Cc1ccccc1Cl	5%	-11	60	5.2	-4
COc1ccc(C(=O)N/C(=C\c2ccc([N+](=O)[O-])cc2)C(=O)NC(CCSC)C(=O)O)cc1 (stereo not drawn)	-5%	nt	1	6.0	15
Cc1cc2cc(CNC(=O)c3cccc([N+](=O)[O-])c3)ccc2n1C	5%	-33	-1	-0.4	0
CC(C)(C)c1ccc(-c2nnc(SCC(=O)NC3CCS(=O)(=O)C3)n2N)cc1 (stereo not drawn)	-8%	nt	1	1.3	18
CCCOC(=O)C1=C(C)NC2=C(C(=O)CCC2)C1c1cccs1 (stereo not drawn)	6%	-7	7	-4.5	3
CC(C)(C)c1ccc(OCC(O)CN2CCCC2)cc1 (stereo not drawn)	nt	nt	-7	-1.7	nt
Cc1nc2ncnn2c(C)c1CCC(=O)NCCc1ccccc1	-9%	5	5	nt	1
O=C(CCS(=O)(=O)c1cc(Br)cc2c1N(C(=O)C1CC1)CC2)NCC1CCCO1 (stereo not drawn)	7%	6	-1	4.8	2
CCNc1nc(N)nc(Oc2ccc(OCC)nn2)n1	5%	-29	10	-0.3	-2
N#Cc1c(Nc2ccc(F)cc2)sc(C(=O)c2ccc(F)cc2)c1N	-12%	-23	9	-1.8	2
COc1ccc(NC(=O)C2CCN(C(=O)c3ccccc3)CC2)cc1OC	-5%	-23	0	2.3	7

No new results follow: an excerpt of the list.
SMILES	Mtb H37Rv	YopH PTP inh	Mtb betalactam	RecA splice inh	Arbovirus inh	others
CCCOC(=O)C1=C(C)NC2=C(C(=O)CCC2)C1c1cccs1 (stereo not drawn)	6%	-7	7	-4.5	3
CC(C)(C)c1ccc(OCC(O)CN2CCCC2)cc1 (stereo not drawn)	nt	nt	-7	-1.7	nt
Cc1nc2ncnn2c(C)c1CCC(=O)NCCc1ccccc1	-9%	5	5	nt	1
O=C(CCS(=O)(=O)c1cc(Br)cc2c1N(C(=O)C1CC1)CC2)NCC1CCCO1 (stereo not drawn)	7%	6	-1	4.8	2

Continued:
SMILES	Mtb H37Rv	YopH PTP inh	Mtb betalactam	RecA splice inh	Arbovirus inh	others
NC(=O)c1cc(-c2ccccc2)nc(Oc2ccccc2)n1	12%	-15	2	1.1	-10
Cc1ccc(-n2ncc3c(NCc4ccccc4)ncnc32)cc1	-7%	-36	-5	0.6	1
Cc1ccc(CNC(=O)CCNC(=O)c2ccc(Br)o2)cc1	2%	-21	0	-0.5	7
O=C(CCN1C(=O)C2CCCCC2C1=O)NNC(=O)c1cccc(Cl)c1 (stereo not drawn)	-4%	-17	6	1.9	-8
CC(=O)Nc1cccc(NC(=O)CSc2nc(=O)n(CCN3CCOCC3)c3c2CCC3)c1	nt	nt	-10	-0.7	nt
Cc1cc(C(C)(C)C)oc1C(=O)N(CC(=O)NC1CCCC1)Cc1ccc(Cl)cc1	8%	-29	-1	-4.5	-2
O=C(NCc1ccc2c(c1)OCO2)c1nn(-c2ccccc2)c(=O)c2ccccc12	2%	-26	-1	3.8	-23
O=C(Nc1ccc(N2CCN(C(=O)c3ccccc3)CC2)cc1)c1cc2ccccc2o1	10%	-40	2	nt	-10
O=C(CSc1nc(-c2ccc(F)cc2)cs1)N1CCOCC1	-4%	2	-3	5.6	6
O=C(Nc1ccccc1)C1CC(=O)N(C2CCCCC2)C1 (stereo not drawn)	-2%	-50	-6	1.3	-4	Arbovirus inh repeat=-2
C/C(=C\C=C\c1ccccc1)C(=O)c1c(C)cc(C)[nH]c1=O	2%	nt	0	-4.5	9
Cc1ccn2cc(-c3cccc([N+](=O)[O-])c3)nc2c1	18%	nt	11	-1.8	-4
CCOc1ccccc1CNC(=O)CCCn1ccc2cc(S(=O)(=O)N3CCCC3)ccc21	nt	nt	16	3.0	nt
O=c1c2c3c(sc2nc(NCCOCCO)n1Cc1ccco1)CCCCC3	-4%	nt	1	-2.0	nt
CCCNC(=O)NC(=O)CSc1nnc(-c2c[nH]c3ccccc23)o1	nt	nt	6	-1.3	nt
C=CCN(c1ccc(Cl)cc1)S(=O)(=O)c1cccc(C(=O)OCC(=O)N(C)C)c1	1%	nt	5	17	8
Cc1c(C(=O)O)cc(C(C)(C)C)n1CCSCCO	4%	nt	2	2.4	nt
Cc1ccc(NC(=S)NNC(=O)c2nn(C)cc2Cl)cc1	6%	-14	-6	3.5	-15
Cc1cc(Cl)ccc1C(=O)C1CCCN(C(=O)CN2CCOC2=O)C1 (stereo not drawn)	nt	nt	-1	0.7	nt
Cc1ccc(F)cc1NC(=O)C1CC(=O)N(CCc2ccccc2)C1 (stereo not drawn)	5%	nt	5	-0.3	11
Cc1cc(C)nc(NS(=O)(=O)c2ccc(NC(=O)Cc3ccccc3)cc2)n1	-2%	nt	1	3.6	-2
CC(C)(C)c1ccc(S(=O)(=O)N2CCN(C(=O)C3CCC3)CC2)cc1	nt	nt	-12	-3.0	nt
CCOc1cc2c(cc1OCC)C(c1ccc(OC)c(OC)c1)N(c1ccc(C(=O)O)cc1)C(=O)C2 (stereo not drawn)	5%	nt	0	-1.1	8
O=[N+]([O-])c1ncccc1OCc1ccc(-c2ccccc2)cc1	nt	nt	34	3.3	nt
CCn1c(SCC(=O)NCc2ccccc2)nnc1-c1cccnc1	-2%	nt	5	-5.7	2
SMILES	Mtb H37Rv	YopH PTP inh	Mtb betalactam	RecA splice inh	Arbovirus inh	others
COc1ccc(Nc2nc(S(=O)(=O)c3ccc(C)cc3)c(Cl)s2)cc1	11%	-21	6	11	-23
CN(CC(=O)Nc1ccc(Cl)c(C(F)(F)F)c1)Cc1cc(=O)n2ccsc2n1	0%	nt	-5	nt	5
CC(NCC1COc2ccccc2O1)C1COc2ccccc2O1 (stereo not drawn)	nt	nt	-4	0.2	nt
NC(=NC1CCCCC1)NS(=O)(=O)c1ccccc1	nt	nt	-8	0.4	nt
CSCCC(NC(=O)c1ccc([N+](=O)[O-])cc1Cl)C(=O)OCC(=O)NCCCc1ccccc1 (stereo not drawn)	-2%	-22	-1	6.5	-5
CCCCNC(=O)c1ccc(-n2c(=S)[nH]c3ccccc3c2=O)cc1	4%	nt	2	-4.0	1
CSCCC(NC(=O)c1ccc([N+](=O)[O-])cc1Cl)C(=O)OCC(=O)NCC(F)(F)F (stereo not drawn)	0%	-42	-1	-3.1	-1
N#CC(C#N)C(c1ccsc1)c1c(-c2ccccc2)[nH][nH]c1=O (stereo not drawn)	-5%	10	-2	86*	-5
c1ccc2c(c1)CCCN2Cc1nnnn1C1CCCC1	-4%	-12	6	-8.9	0
COc1ccc(OC)c(NC(=O)[C@H]2CC=CC[C@H]2C(=O)O)c1	-9%	-39	-2	5.7	2
COc1ccc(Cl)cc1NC(=S)NC1CCCC1	nt	nt	-19	-0.3	nt
CCOCCn1c(CN2CCN(C(=O)c3ccco3)CC2)nc2c1c(=O)n(C)c(=O)n2C	nt	nt	5	-2.2	nt
COc1cc(C(=O)NCC(C)C)cc(OC)c1OC	-1%	10	3	-1.7	-4
Cc1nn(Cc2ccccc2)c(Cl)c1C(=O)NCCc1ccc(Cl)cc1	10%	-27	4	5.0	-9
O=C(CO/N=C/c1ccccc1OC(F)F)N1CCc2ccccc21	-6%	-18	3	-1.2	-4
Cc1nccn1CC(=O)N/N=C/c1c[nH]c2ccccc12	4%	nt	-8	-3.2	nt
CCCCC(CC)CNC(=O)CN(C)S(=O)(=O)c1cccc2nsnc12 (stereo not drawn)	5%	3	-7	0.4	-9
Cc1ccccc1CN1CCCC(C(=O)N2CCCCC2)C1 (stereo not drawn)	nt	nt	-3	-1.3	nt
O=C1CSC(c2ccccc2F)N1c1ccccc1F (stereo not drawn)	nt	nt	-7	-0.2	nt
COc1cccc(Nc2n[nH]c(=S)s2)c1	2%	-30	0	-31	-3
O=C(CN1C(=O)c2ccccc2S1(=O)=O)N1CCN(Cc2ccc3c(c2)OCO3)CC1	-13%	-32	-3	0.0	-6
COCCCN1C(=O)C(=O)/C(=C(/O)c2ccc(S(=O)(=O)N3CCCCC3)cc2)C1c1ccc(OC)cc1 (stereo not drawn)	nt	nt	-4	4.4	nt
CCn1c(SCC(=O)NC(C)(C)C)nc(O)cc1=O	-12%	-33	11	2.4	-3
CC1CCN(c2cc(N(C)CCO)c([N+](=O)[O-])c3nonc23)CC1	-6%	nt	-1	0.9	-2
CCOC(=O)C(NCCc1ccccc1F)(NC(C)=O)C(F)(F)F (stereo not drawn)	5%	-22	2	-1.4	3
SMILES	Mtb H37Rv	YopH PTP inh	Mtb betalactam	RecA splice inh	Arbovirus inh	others
Cc1noc(C)c1COc1ccc(CC(=O)NCc2ccccc2)cc1	7%	nt	4	1.3	-5
CCOc1ccc(C2NC(=O)C(C#N)=C(S)N2c2cccc(C)c2)cc1OC (stereo not drawn)	1%	nt	0	-3.0	-2
Cc1cc2occ(CC(=O)NC3(C)CCS(=O)(=O)C3)c2cc1C (stereo not drawn)	nt	nt	-7	-1.2	nt
COc1ccc(N2CCN(C(CNC(=O)c3cccc(Cl)c3)c3cccnc3)CC2)cc1 (stereo not drawn)	-10%	-24	-16	0.4	5
C=CCOc1ccc(C2OC34CCCCC3C(C#N)(C#N)C2(C#N)C(=N)O4)cc1 (stereo not drawn)	-5%	-19	-4	-93	4
Cc1ccc(C(C(=O)NC2CCCCC2)N(Cc2ccco2)C(=O)Cn2cnc3ccccc32)cc1 (stereo not drawn)	5%	-10	5	-1.4	-3
CCN(CC(=O)Nc1c(F)cccc1F)C(=O)c1ccc(-c2ccccc2)cc1	nt	nt	-2	1.2	nt
O=[N+]([O-])c1cccc(-c2nnc(-c3ccc4c(c3)OCO4)o2)c1	-4%	-15	1	-0.7	4
COc1cccc(C(=O)Nc2cccc(OCC(=O)O)c2)c1	-5%	-15	-3	-1.7	0
O=Cc1c(C(=O)O)n(Cc2ccccc2F)c2ccccc12	nt	nt	-3	-0.2	nt
O=C(CSc1nnnn1-c1ccccc1)Nc1ncc(Cc2cc(Cl)ccc2Cl)s1	-6%	-1	10	8.2	2
CCC(=O)N1N=C2CC(C)(C)OCC2C1c1ccccc1 (stereo not drawn)	0%	-34	2	0.4	-2
O=C(NC1CCCCCC1)C1Cc2ccccc2CN1C(=O)c1ccco1 (stereo not drawn)	2%	nt	-2	0.9	5
Cn1cc(C[C@H](NC(=O)OC(C)(C)C)C(=O)N[C@@H](CO)Cc2ccccc2)c2ccccc21	1%	nt	7	0.1	nt

Compounds from the list above containing a cyano group (4):
SMILES	Mtb H37Rv	YopH PTP inh	Mtb betalactam	RecA splice inh	Arbovirus inh	others
N#Cc1c(Nc2ccc(F)cc2)sc(C(=O)c2ccc(F)cc2)c1N	-12%	-23	9	-1.8	2
N#CC(C#N)C(c1ccsc1)c1c(-c2ccccc2)[nH][nH]c1=O (stereo not drawn)	-5%	10	-2	86*	-5
CCOc1ccc(C2NC(=O)C(C#N)=C(S)N2c2cccc(C)c2)cc1OC (stereo not drawn)	1%	nt	0	-3.0	-2
C=CCOc1ccc(C2OC34CCCCC3C(C#N)(C#N)C2(C#N)C(=N)O4)cc1 (stereo not drawn)	-5%	-19	-4	-93	4
